Cruzain inh noDet – cruzain (T. cruzi) inhibition without detergent | purified cruzain, Z-FR-AMC fluorescence, no detergent | P25779 | Potency, µM, for inactives: max response, negative = inhibition, hits mostly inhibitors | actives 2.3% (n = 200,000);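 note: plate controls were enzyme without inhibitor for no effect and buffer without enzyme for full effect; nearly all actives have a fitted effect of over 40% in size; top concentration of the series not given in the record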
Target sequence (P25779 123-467 limits assumed): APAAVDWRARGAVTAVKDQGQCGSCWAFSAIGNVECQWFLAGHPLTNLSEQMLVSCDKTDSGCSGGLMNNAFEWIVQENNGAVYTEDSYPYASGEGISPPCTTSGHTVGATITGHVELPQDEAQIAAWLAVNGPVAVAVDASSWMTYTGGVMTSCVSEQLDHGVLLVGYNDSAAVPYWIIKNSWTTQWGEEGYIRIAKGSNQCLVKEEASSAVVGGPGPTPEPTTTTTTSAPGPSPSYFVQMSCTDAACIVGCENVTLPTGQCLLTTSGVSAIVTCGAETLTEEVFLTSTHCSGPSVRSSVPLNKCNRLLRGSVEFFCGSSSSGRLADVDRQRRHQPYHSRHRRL
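Purified cruzain at 1.5 nM, pre-incubated 15 min with compound at room temperature in 100 mM sodium acetate pH 5.5, 5 mM DTT, 0.00005% Triton X-100. Reaction started with 2 uM Z-FR-AMC; AMC fluorescence increase over 60 s gives rate.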
StopGo reporter – lowers the luciferase signal of an FMDV 2A StopGo reporter | AID 1159524 | human cells with a luciferase reporter of 2A StopGo recoding; control for the full effect not named in the record | Potency, µM (highest dose often 57.9 µM), without a hit: at the top dose signal change, negative = less light | actives 1.2% (n = 410,000); active = well fitted falling curve with a large enough effect; inconclusive = small, poorly fitted or top-dose-only effect; inactive = no such curve, though single readings can be large or run the other way; tested in HEK293T cells; note: % is set by controls: 0 for no effect and ±100 for the full control effect; nearly all actives have a fitted effect of over 45% in size; luciferase light after 4 h
Marburg entry inh – blocks Marburg virus binding to or entry into cells; Marburg virus pseudotyped entry inhibition, cell reporter; control for the full effect not named in the record; about a third of the inactives were read at about 46 µM; Potency, µM (titrated, usually from 37.8 µM), for the others: at the top dose activity change, negative = inhibition, hits mostly inhibitors; actives 1.8% (n = 300,000); AID 540276; active = well fitted inhibition curve with a large enough effect; inconclusive = small, poorly fitted or top-dose-only effect, or effect the other way; inactive = flat fitted curve, though single readings scatter; tested in HEK293 cells; about a fifth of its hits are not listed in these tables; note: % is set by controls: 0 for no effect and ±100 for the full control effect; luciferase read-out
Cruzain inh Det – cruzain (T. cruzi) inhibition with detergent. Potency, µM, without a hit: max response, negative = inhibition, most hits filed as inhibitors. AID 1478. P25779. actives 0.43% (n = 200,000). purified cruzain, Z-FR-AMC fluorescence, 0.01% Triton;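 note: plate controls were neutral wells for no effect and buffer without enzyme for full effect; nearly all actives have a fitted effect of over 40% in size; top concentration of the series not given in the record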
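Detergent-containing arm of a paired screen for aggregation-based inhibition: 0.01% Triton X-100 present. Cruzain at 1.5 nM cleaved 2 uM Z-FR-AMC at pH 5.5 with 5 mM DTT; AMC fluorescence gain over 60 s measured activity.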
NS1 inh – inhibitors of influenza NS1 protein function; S. cerevisiae slowed by influenza A NS1, growth recovery by OD600; Potency, µM (titrated, usually from 46.1 µM), without a hit: at the top dose activity, positive = more growth; actives 0.4% (n = 270,000); active means well fitted rising curve with a large enough effect; inconclusive means small, poorly fitted or top-dose-only effect; inactive means no such curve, though single readings can be large or run the other way; note: nearly all actives have a fitted effect of over 50% in size
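OD600 was taken as the measure of yeast growth restored by compound in an NS1-expressing S. cerevisiae strain. Cells had been washed out of glucose medium and diluted 1:100 into galactose -URA medium, pH 6.0.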
RE007 growth inh – less growth of the S. pombe RE007 Vpr strain; S. pombe RE007 Vpr strain, BacTiter-Glo ATP luminescence, 24 h; control for the full effect not named in the record; Potency, µM (titrated, usually from 92.2 µM), for the others: top-dose activity change, negative = less growth; actives 0.21% (n = 360,000); AID 651644; active = well fitted falling curve with a large enough effect; inconclusive = small, poorly fitted or top-dose-only effect; inactive = no such curve, though single readings can be large or run the other way;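 note: % is set by controls: 0 for no effect and ±100 for the full control effect; nearly all actives have a fitted effect of over 50% in size; the assay follows cell death caused by Vpr and the record does not say whether a fall means rescue or toxicity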
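Fission yeast strain RE007, carrying one chromosomally integrated HIV-1 vpr copy, was seeded at OD 0.01 in PMG+AL medium with 23 nL pinned compound. After 24 h at 30 °C and 99% humidity, viability was read by BacTiter-Glo luminescence.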
LASV entry inh – inhibitors of Lassa virus binding or cell entry; Lassa virus pseudotype entry inhibition, cell reporter; control for the full effect not named in the record; Potency, µM (titrated, usually from 37.9 µM), without a hit: at the top dose activity change, negative = inhibition, most hits filed as inhibitors; actives 1.2% (n = 300,000); active means well fitted inhibition curve with a large enough effect; inconclusive means small, poorly fitted or top-dose-only effect, or effect the other way; inactive means flat fitted curve, though single readings scatter; tested in HEK293 cells; note: % is set by controls: 0 for no effect and ±100 for the full control effect; nearly all actives have a fitted effect of over 50% in size; luciferase read-out
SARS PLP yeast – inhibitors of SARS-CoV papain-like protease in yeast. AID 485353. Potency, µM (titrated, usually from 32.9 µM), inactives show top-dose activity, positive = growth rescue. S. cerevisiae expressing SARS-CoV PLpro, growth rescue; control for the full effect not named in the record. actives 0.19% (n = 330,000); active means well fitted rising curve with a large enough effect; inconclusive means small, poorly fitted or top-dose-only effect; inactive means no such curve, though single readings can be large or run the other way; note: 0% is about no effect; nearly all actives have a fitted effect of over 55% in size; growth read by luminescence after 48 h
* = called active by the depositor; ? = inconclusive; · = not tested or not shown; & = joins results of further samples; [ ] = another dose, or the depositor's remark. Unless noted, calls come from the whole dose curve; as a rule, active = well fitted curve in the direction sought with a large enough effect; inconclusive = small, poorly fitted or top-dose-only effect, or another doubt; inactive = no such curve, though single readings can be large; an effect the other way counts as inactive or inconclusive. Potency is the fitted concentration of half-maximal effect. Rows were taken by chance. About 4.7% of those tested had a hit in this group.

Values in the order: Cruzain inh noDet	StopGo reporter	Marburg entry inh	Cruzain inh Det	NS1 inh	RE007 growth inh	LASV entry inh	SARS PLP yeast
(1) Cn1c(NC(=O)c2ccc(S(=O)(=O)N3CCCCC3)cc2)cc(=O)n(C)c1=O
→ 1%	-20%	8%	-4.3%	13%	-1%	-7%	-17%
(2) COc1ccc(CCNc2nc(C)cc(=O)[nH]2)cc1OC
→ ·	2%	1%	·	·	9%	-24%[14.3 µM]	·
(3) COc1ccc(Br)cc1CN(C)C(=O)C1CC(=O)N(C2CCCC2)C1 (stereo not given)
→ ·	-11%	-19%	·	·	1%	-1%	4%
(4) O=C(NCc1ccccn1)C1CCC(=O)N(Cc2ccc(Cl)cc2)C1 (stereo not given)
→ ·	-3%	·	·	-5%	4%	·	0%
(5) Cc1ccsc1/C=C1/SC(N2CCOCC2)=NC1=O
→ -1%	·	29%	-6.4%	-9%	·	25%	-5%
(6) Nc1nc(Nc2ccccc2F)nc(N2CCCC2)c1[N+](=O)[O-]
→ ·	13%	?	·	-41%	-4%	0%[46.1 µM]	-2%
(7) O=C(C1CCC1)N1CCc2cc(S(=O)(=O)NC3CCCc4ccccc43)ccc21 (stereo not given)
→ -3%	·	-6%	-2.4%	6%	24%	2%	-7%
(8) CCC(C(=O)Nc1ccncc1)c1ccccc1 (stereo not given)
→ 6%	0%	?	1.5%	2%	14%	-14%	-24%
(9) CC(C)(C)c1nc2scc(-c3ccc(Cl)cc3)c2c(=O)o1
→ ?	5%	17%[46.1 µM]	3.9%	3%	3%	-5%	0%
(10) Cc1cc(C)nc(SCCN2CCCCC2)n1
→ ·	-15%	-17%[46.1 µM]	·	·	6%	15%[46.1 µM]	·
(11) OCCN1CCN(C(=S)c2ccc(Cl)c(Cl)c2)CC1
→ 25µM*	-20%	17%	-28%	2%	-6%	-9%	-7%
(12) COc1ccc(Nc2nc(C(=O)NCc3ccco3)cs2)cc1
→ ·	-25%	·	·	-115%	-6%	·	-5%
(13) Cc1cc(C)n2c(-c3ccccc3Cl)nnc2n1
→ -2%	-5%	1%	0.7%	26%	2%	2%	8%
(14) O=C(CC1SCCNC1=O)Nc1cccc([N+](=O)[O-])c1 (stereo not given)
→ ·	-8%	·	·	1%	10%	·	0%
(15) CCOc1ccc(CCNC(=O)CCC(=O)N2CCOc3ccccc32)cc1OCC
→ ·	-7%	·	·	-5%	12%	·	6%
(16) CCOc1ccc(-c2c(C(=O)N/N=C/C3CCCCC3)nnn2-c2nonc2N)cc1
→ ·	3%	-6%[46.1 µM]	·	13%	10%	14%[46.1 µM]	7%
(17) CCN(CC(F)(F)C(F)F)S(=O)(=O)c1ccc(NC(=O)OC)cc1
→ -3%	-4%	-15%	8.1%	-1%	-23%	-25%	-1%
(18) O=C1CSC(c2ccccc2Br)N1c1ccc(Cl)cn1 (stereo not given)
→ ·	-14%	?	·	·	2%	?	-13%
(19) CC(C)c1ccc(S(=O)(=O)/N=C2\C=C(NS(=O)(=O)c3ccccc3)C(=O)c3ccccc32)cc1
→ ·	18%	9%[46.1 µM]	·	6%	?	26%[46.1 µM]	-10%
(20) COc1ccc(C2CCCN2C(=O)c2cccs2)cc1 (stereo not given)
→ -1%	9%	17%	3.8%	-4%	30%	21%	3%
(21) CC(=O)NC(Cc1c[nH]c2ccccc12)C(=O)O (stereo not given)
→ ·	-19%	·	·	3%	9%	·	1%
(22) CCOc1cc(C2C(C(=O)OC(C)C)=C(C)NC3=C2C(=O)CCC3)cc([N+](=O)[O-])c1O (stereo not given)
→ ·	4%	-4%[46.1 µM]	·	5%	7%	1%[46.1 µM]	0%
(23) Fc1ccc2c(c1)C1OCCCC1C(c1ccccc1)N2 (stereo not given)
→ ·	?	-18%	·	-15%	-7%	-24%	-15%
(24) O=C(Oc1cccc2cccnc12)c1cccc(-n2cnnn2)c1
→ -4%	-10%	-1%	-0.1%	-14%	-12%	15%	?
(25) CC(NC(=O)c1ccc(Br)o1)C1CC2CCC1C2 (stereo not given)
→ ·	-11%	·	·	-20%	14%	·	-1%
(26) COc1ccc(/C=N/NS(=O)(=O)c2ccc(C)cc2)cc1OC(=O)c1ccc(C)cc1
→ ?	16%	-1%	1.2%	16%	4%	-12%	6%
(27) Cc1cccc(NC2=CC(=O)CC(C)(C)C2)c1C
→ ·	-20%	·	·	0%	-4%	·	0%
(28) CCn1c(SCC(=O)Nc2ccccc2C)nc2nc3c(cc2c1=O)COC(C)(C)C3
→ ·	-15%	·	·	-2%	6%	·	0%
(29) Cc1ccc2[nH]c3c(NCc4ccco4)ncnc3c2c1
→ -23%	-10%	10µM*	-27%	-175%	-23%	-28%	-3%
(30) Cc1cc(C)c2c(CC(=O)N(Cc3ccc(Cl)cc3)Cc3ccco3)coc2c1
→ ?	?	?	-11%	·	·	12%[46.1 µM]	·

One compound at a time (already shown). Screens in order: Cruzain inh noDet	StopGo reporter	Marburg entry inh	Cruzain inh Det	NS1 inh	RE007 growth inh	LASV entry inh	SARS PLP yeast
Record of Cc1cc(C)nc(SCCN2CCCCC2)n1 → ·	-15%	-17%[46.1 µM]	·	·	6%	15%[46.1 µM]	·
Record of Cn1c(NC(=O)c2ccc(S(=O)(=O)N3CCCCC3)cc2)cc(=O)n(C)c1=O → 1%	-20%	8%	-4.3%	13%	-1%	-7%	-17%
Record of CC(NC(=O)c1ccc(Br)o1)C1CC2CCC1C2 (stereo not given) → ·	-11%	·	·	-20%	14%	·	-1%
Record of O=C1CSC(c2ccccc2Br)N1c1ccc(Cl)cn1 (stereo not given) → ·	-14%	?	·	·	2%	?	-13%

New compounds follow.
Values in the order: Cruzain inh noDet	StopGo reporter	Marburg entry inh	Cruzain inh Det	NS1 inh	RE007 growth inh	LASV entry inh	SARS PLP yeast
(31) CCOc1ccc(OCC(=O)Nc2nccs2)cc1
→ ·	8.9µM*	?	·	-9%	?	?	-4%
(32) Cc1cc(CNC(=O)CC2C(=O)NCCN2Cc2ccc(-c3ccccc3)cc2)nn1C (stereo not given)
→ ·	-22%	·	·	-2%	13%	·	9%
(33) O=C(O)c1ccc(C=NN=Cc2ccco2)cc1
→ ·	13%	29%	·	·	14%	10%[46.1 µM]	·
(34) COC(CCN(C)C)(c1ccccc1)c1ccccc1
→ 8%	·	?	4.8%	-10%	11%	-22%	2%
(35) Cc1ccc[n+](-c2nc([O-])sc2/C=N/Nc2ccc([N+](=O)[O-])cc2)c1
→ ·	-13%	?	·	9%	-7%	-5%[46.1 µM]	-1%
(36) Cc1ccc(NC(=O)CSc2nc3[nH]ncc3c(=O)[nH]2)c(C)c1
→ ·	-16%	14%[46.1 µM]	·	·	3%	23%	0%
(37) O=C(c1ccc(CSc2ccc(Cl)cc2)cc1)N1CCOCC1
→ ·	1%	·	·	-31%	-1%	·	-1%
(38) CCOc1cc(C=O)ccc1OCCn1c([N+](=O)[O-])cnc1C
→ ·	-16%	19%[46.1 µM]	·	-3%	18%	·	-3%
(39) Cc1cc(NCCCN(C)C)n2c(nc3ccccc32)c1C#N
→ ·	-12%	-17%	·	3%	-11%	-10%	0%
(40) O=C(COc1ccc(-c2ccccc2)cc1)N/N=C/c1cccnc1
→ ·	-5%	·	·	1%	2%	·	-7%
(41) CC1CCCCN1C(=O)CCc1nnc(Cc2c[nH]c3ccccc23)o1 (stereo not given)
→ ·	1%	·	·	4%	18%	·	-1%
(42) CCCCOC(=O)c1ccccc1N1C(=O)C2C3CCC(C3)C2C1=O (stereo not given)
→ 14%	-15%	12%	1.7%	13%	-10%	-7%	1%
(43) CC1CCCN(S(=O)(=O)c2cccc([N+](=O)[O-])c2)C1 (stereo not given)
→ ·	-2%	·	·	-46%	13%	·	18%
(44) O=C(CC(c1cccs1)S(=O)(=O)c1ccccc1)c1ccc(F)cc1 (stereo not given)
→ -7%	-20%	0%	-0.7%	0%	9%	-7%	16%
(45) CC(C)c1nnc(NC(=O)c2nc(S(=O)(=O)Cc3ccccc3)ncc2Cl)s1
→ -1%	4.5µM*	?	-1.3%	13%	10%	?	1%
(46) Cc1ccc(-c2nnn(CC(=O)N(CC(=O)NCCC(C)C)c3ccc(F)cc3)n2)cc1
→ -3%	0%	11%[46.1 µM]	-2.9%	·	·	8%[46.1 µM]	·
(47) CS(=O)(=O)N1CCc2cc(C(=O)Nc3ccc(Br)cc3)ccc21
→ ·	-16%	·	·	5%	1%	·	1%
(48) CC1CN(CCC(=O)Nc2ccccc2F)CC(C)O1 (stereo not given)
→ ·	-7%	·	·	23%	-4%	·	-7%
(49) O=C(Cc1c[nH]c2ccccc12)NNCc1ccc(N(CCCl)CCCl)cc1
→ ·	-7%	1.6µM*	·	·	1%	3.5µM*	·
(50) CCn1cc2nc(SCC(=O)Nc3ccc(F)cc3F)n(Cc3ccccc3)c(=O)c2n1
→ ·	-22%	·	·	6%	11%	·	14%
(51) COc1ccc(Cl)cc1NC(=O)Cn1c(=O)n(-c2ccc(C)cc2)c(=O)c2ccc(C(=O)NCc3ccccc3Cl)cc21
→ -19%	7%	6%[46.1 µM]	-1.7%	·	·	?	·
(52) Cc1ccc2nc3c(cc2c1)CC1(C(=O)N(C)C(=O)N(C)C1=O)C1CCCCN31 (stereo not given)
→ -6%	11%	?	-18%	-22%	-11%	-7%	3%
(53) CCCCN1CCCCC1C(=O)Nc1c(C)cccc1C (stereo not given)
→ 2%	-1%&-5%	·	1.4%	·	-6%	·	·
(54) COc1cccc(C=Nc2ccc3c(c2)CCC3)c1O
→ ·	24%	21%	·	7%	-5%	-12%	-2%
(55) Cc1ccc(C)c(NC(=O)CCc2c(C)n(C)c3cc(-c4ccccc4C)nn3c2=O)c1
→ -5%	-2%	·	-0.3%	·	·	-2%[46.1 µM]	·
(56) Cc1c(OCC(=O)NC(Cc2ccc(Cl)cc2)C(=O)O)ccc2c3c(c(=O)oc12)CCC3 (stereo not given)
→ ·	-11%	·	·	25%	-2%	·	10%
(57) O=C1C2C3C=CC(CC3)C2C(=O)N1c1cccc(C(F)(F)F)c1 (stereo not given)
→ ·	-18%	2%	·	11%	0%	24%	5%
